# Source: PubChem BioAssay (several laboratories)
# Env fusion inh: inhibitors of HIV-1 Env-driven cell-cell fusion, primary screen, HeLa-JRFL effector, CEM21 target cells, luciferase; inhibition, % at 12.3 µM; 1.1% of 360,000 active;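 active = mean replicate inhibition score of at least 50 and every replicate individually at or above 50; inconclusive = only one of the two criteria met; inactive = mean below 50 and not all replicates reaching 50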;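 note: 0% = plate neutral controls and 100% = maraviroc near 300 nM; one replicate is shown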
# Yeast UUG start: modulators of yeast start codon fidelity, primary screen, whole organism, S. cerevisiae, single point, plate reader | S. cerevisiae UUG-firefly luciferase reporter, luminescence/redox ratio | activity score, % at 18.7 µM | 0.13% of 350,000 active | AID 602363, 2012;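 active = replicate mean at a twofold rise or more, about +100% in these data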;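 note: firefly luciferase made from a UUG start codon reports start codon fidelity; reporter light over untreated wells divided by growth signal over untreated wells; some hits fall short of that in this replicate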
# MT1-MMP act inh: blockers of MT1-MMP proenzyme processing, primary screen, HT1080 RFP-PRO-GFP cells, GFP/RFP fluorescence; AID 651647, 2012; 0.061% of 360,000 active; Matrix metalloproteinase-14 (Homo sapiens), P50281; GFP/RFP ratio fluorescence, overnight; percent of plate control window, DMSO zero; GFP/RFP ratio change, % at 20 µM;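 active = GFP/RFP ratio change of at least 30% with cell ATP level not reduced by more than half and red fluorescence within 50% of control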; note: strong numbers were not always called active
#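 Material – HT1080 RFP-PRO-GFP cells · Control set – DMSO wells and RFP-L50D-GFP cells · Incubation – overnight cell settling, then overnight compound exposure, 37 °C, 5% CO2 · Compound dosing – single-point 20 µM compound, 1% DMSO · Read-out – GFP/RFP fluorescence ratio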
# PABP polyA inh: PABP poly(A) RNA binding inhibitors, primary screen, biochemical, fluorescence polarization, uHTS; Polyadenylate-binding protein 1 (Homo sapiens), P11940; inhibition, % at 35 µM; 1% of 290,000 active;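 active = 50% or more with normal probe brightness, or confirmed in later tests; inconclusive = above 50% with abnormal brightness, or retests that disagree; inactive = below 50% or failed in later tests; about a fifth of its hits are not listed in these tables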;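 note: calls also rest on retests at 20 µM and on dose response follow-up; controls were probe without protein and protein plus probe with vehicle; some compounds called inactive have numbers as strong as hits; many hits fall short of the cut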
# eIF4H inh: human eIF4H binding inhibitors, primary screen, translation initiation inhibitor project, biochemical, uHTS, fluorescence polarization. Eukaryotic translation initiation factor 4H (Homo sapiens), Q15056. AID 2012, 2009. inhibition, % at 35 µM. 0.94% of 290,000 active. eIF4H fluorescence polarization binding assay;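 active = 50% or more with normal probe brightness, or confirmed in later tests; inconclusive = above 50% with abnormal brightness, or retests that disagree; inactive = below 50% or failed in later tests; about a fifth of its hits are not listed in these tables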;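 note: calls also rest on retests at 20 µM and on dose response follow-up; 0% = protein and probe with vehicle and 100% = probe without protein; strong numbers were not always called active; many hits fall short of the cut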
# Rce1 inh: yeast Rce1p protease inhibitors, primary screen, biochemical, fluorescence, cell-free homogeneous; yeast membranes, quenched prenylated peptide cleavage fluorescence; calls only; CAAX prenyl protease 2 (Saccharomyces cerevisiae (strain ATCC 204508 / S288c)), Q03530; 0.27% of 290,000 active;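 active = fall in fluorescence gain of 50% or more versus controls, with final raw signal at or below 3038400; inconclusive = same 50% fall but final raw signal above 3038400; inactive = fall in fluorescence gain under 50%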;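 note: plate controls were neutral control wells for no effect and wells lacking membranes for full effect; tested at 10 µM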
# Target sequence (Q03530 whole entry, looked up): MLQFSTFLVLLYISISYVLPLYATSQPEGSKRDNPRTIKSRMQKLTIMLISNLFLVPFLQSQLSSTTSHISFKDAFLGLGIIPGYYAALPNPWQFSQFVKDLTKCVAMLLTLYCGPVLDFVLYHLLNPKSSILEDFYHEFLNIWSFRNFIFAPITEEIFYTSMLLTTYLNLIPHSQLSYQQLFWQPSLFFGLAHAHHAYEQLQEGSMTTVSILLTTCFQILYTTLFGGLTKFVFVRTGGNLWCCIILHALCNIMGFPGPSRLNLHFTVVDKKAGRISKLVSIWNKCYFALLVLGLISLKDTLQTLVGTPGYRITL
# CSC inhib: cancer stem cell viability inhibitors, primary screen, luminescence; cancer stem cell-like cells viability; 1.1% of 300,000 active; inhibition, % at 7.5 µM;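 active = mean at 75% or more and at least half the replicates too; inconclusive = mean and replicates disagree; tested in HMLE shEcad cells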;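 note: 0% = median of negative and 100% = median of positive control wells; the first replicate is given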
# MT1-MMP act inh RFP: also measured in MT1-MMP act inh; calls as there; RFP signal change, %; measured here: RFP expression control read;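 0 = vehicle wells; hits needed this value within 50% of zero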
# Numbers without * were called inactive; i = inactive; ? = inconclusive; . = not tested or not shown. This is a subset; count on the stated rates, not on these rows.
no.	Compound	Env fusion inh	Yeast UUG start	MT1-MMP act inh	MT1-MMP act inh RFP	PABP polyA inh	eIF4H inh	Rce1 inh	CSC inhib
1	Cc1sc2ncnc(SCc3ccc(C(=O)O)cc3)c2c1C	8.0	-8.8	-2.3	1.4	4.5	-5.4	i	4.0
2	CCCCP(=O)(CCCC)Cc1ccccc1O	.	13.6	3.1	2.4	0.4	4.8	i	-16.8
3	Cc1ccc(C)c(NC(=S)Nc2cccc3cnccc23)c1	0.7	.	4.5	-1.1	1.4	47.5	i	9.5
4	CC[C@]12c3[nH]c4ccc(Cl)cc4c3CCN1C(=O)[C@@H](CC(=O)NCCC1=CCCCC1)C[C@@H]2C(=O)N1CCN(C(=O)c2ccco2)CC1	-5.0	-1.9	-0.9	-9.2	.	.	.	.
5	CC1CN=C(N(C(=O)Nc2ccccc2)c2ccc(F)cc2)S1 (stereo unspecified)	-5.0	-13.2	-0.4	4.8	1.0	-3.3	i	9.1
6	COc1ccc(Cl)cc1NC(=O)c1oc(C)nc1C	-95.1	8.8	-2.1	5.4	27.9	12.6	i	8.1
7	COc1ccc2oc(C(=O)N3CCN(C/C=C/c4ccccc4)CC3)c(C)c2c1	-3.0	-19.2	2.8	-1.7	.	.	.	.
8	CN(CC(=O)N1CCCCC1)S(=O)(=O)c1ccc(Cl)cc1	-3.3	.	-0.1	-1.3	9.1	-2.2	i	-3.4
9	CCOC(=O)C1CCCN(CC(O)COc2ccccc2C(C)=O)C1 (stereo unspecified)	-21.5	-21.0	-2.5	4.8	23.5	31.2	i	-6.5
10	C[C@H](O)CNC(=O)c1[nH]cnc1C(=O)Nc1ccc(CNC(=O)OC(C)(C)C)cc1	-0.2	-14.5	0.2	-1.9	.	.	.	.
11	Cn1cc(Cl)c(C(=O)NNC(=S)NCc2ccco2)n1	-3.3	.	-7.8	2.0	6.3	9.8	i	-11.5
12	Cn1cc(-c2ccno2)c(C(=O)O)n1	-9.4	-23.7	1.4	1.6	9.3	7.3	i	-5.7
13	C(=N\n1cnnc1)/c1cn(-c2cccs2)nc1-c1ccccc1	-79.7	-20.4	-4.8	-3.8	-9.6	-3.0	i	8.9
14	Cc1[nH]n(-c2ccccc2)c(=O)c1C(C[N+](=O)[O-])c1ccc(Br)cc1 (stereo unspecified)	.	.	1.7	-5.9	3.9	0.1	i	34.7
15	CCC(Sc1ccc2nnc(-c3ccc(F)cc3)n2n1)C(=O)OC (stereo unspecified)	.	-22.7	-5.2	-3.0	2.9	-3.0	i	-3.9
16	O=C(Nc1ccc(F)cc1)Nc1cccnc1Cl	-4.1	-12.0	-0.8	-4.1	3.2	-9.2	i	14.0
17	N/C(=N\OS(=O)(=O)c1ccc(Cl)cc1)c1ccccn1	-5.0	.	1.9	3.6	-5.3	-3.0	.	.
18	Cc1nnsc1C(=O)NNc1ccc(C(C)C)cc1	11.8	.	1.0	3.7	2.4	-3.9	i	-4.5
19	CC[C@]12C(=O)N(C)C[C@H]([C@@H]3C(=O)N(Cc4ccccc4)C(=O)[C@@H]31)N2C(=O)c1ccc(Br)cc1	15.0	3.2	1.3	-1.0	.	.	.	.
20	CC(C)CCNC(=S)Nc1ccc([N+](=O)[O-])cc1	-7.8	-32.4	-10.6	-17.7	1.3	2.6	i	-0.5
21	COc1cc(OC)cc(C(=O)NC(C(=O)N2CCC2)C(C)C)c1 (stereo unspecified)	.	9.4	-0.2	3.0	.	.	.	-16.1
22	CC1CCCCN1CCNS(=O)(=O)c1ccc2c(c1)oc(=O)n2C (stereo unspecified)	4.5	5.6	-0.5	-1.5	19.4	-6.5	.	-20.7
23	CCN(C(=O)CSc1nc2cc(S(=O)(=O)N(CC)CC)ccc2o1)C1CCS(=O)(=O)C1 (stereo unspecified)	-1.2	-2.9	-2.6	1.5	-15.0	-13.3	i	-3.7
24	O=C(Nc1cnccn1)c1ccc(F)cc1Cl	-76.9	-2.8	-2.0	1.4	-4.2	-7.3	i	4.0
25	C#CC[N+]1(CC#Cc2ccccc2)CCOCC1	.	-10.2	3.1	2.5	5.8	-1.5	i	11.0
26	Cc1cc2nc3n(c2cc1C)CCCN3	14.0	-26.9	2.9	0.5	4.1	-3.0	i	-3.5
27	Cc1ccc(C(=O)NCCCNC(=O)c2ccccc2C)cn1	-12.0	-13.4	-2.4	1.3	3.4	-8.3	i	6.9
28	O=C(NC1CCCCC1)/C(=N\O)c1ccccn1	.	.	4.7	6.7	-13.8	-9.4	i	-4.8
29	CCCCSc1nc(C)[nH]c1[N+](=O)[O-]	-35.6	-24.1	2.4	1.3	0.2	-1.2	i	.
30	CCCCn1c(NC(C)=O)c(C#N)c2nc3ccccc3nc21	-141.8	-3.9	-1.1	7.6	-0.7	-4.3	i	2.8

# Another view of part of the listing above:
22. CC1CCCCN1CCNS(=O)(=O)c1ccc2c(c1)oc(=O)n2C (stereo unspecified)
  Env fusion inh: 4.5; Yeast UUG start: 5.6; MT1-MMP act inh: -0.5; MT1-MMP act inh RFP: -1.5; PABP polyA inh: 19.4; eIF4H inh: -6.5; Rce1 inh: .; CSC inhib: -20.7

23. CCN(C(=O)CSc1nc2cc(S(=O)(=O)N(CC)CC)ccc2o1)C1CCS(=O)(=O)C1 (stereo unspecified)
  Env fusion inh: -1.2; Yeast UUG start: -2.9; MT1-MMP act inh: -2.6; MT1-MMP act inh RFP: 1.5; PABP polyA inh: -15.0; eIF4H inh: -13.3; Rce1 inh: i; CSC inhib: -3.7

24. O=C(Nc1cnccn1)c1ccc(F)cc1Cl
  Env fusion inh: -76.9; Yeast UUG start: -2.8; MT1-MMP act inh: -2.0; MT1-MMP act inh RFP: 1.4; PABP polyA inh: -4.2; eIF4H inh: -7.3; Rce1 inh: i; CSC inhib: 4.0

25. C#CC[N+]1(CC#Cc2ccccc2)CCOCC1
  Env fusion inh: .; Yeast UUG start: -10.2; MT1-MMP act inh: 3.1; MT1-MMP act inh RFP: 2.5; PABP polyA inh: 5.8; eIF4H inh: -1.5; Rce1 inh: i; CSC inhib: 11.0

# Next section.
no.	Compound	Env fusion inh	Yeast UUG start	MT1-MMP act inh	MT1-MMP act inh RFP	PABP polyA inh	eIF4H inh	Rce1 inh	CSC inhib
31	COc1ccc(-c2nc(CS(=O)(=O)CC(=O)NCc3cccc(Br)c3)c(C)o2)cc1	10.2	-21.7	7.2	2.6	34.7	28.6	i	10.5
32	CCOC(=O)c1c(C)nc2sc3c(=O)n(-c4ccc(C)cc4)cnc3c2c1-c1ccc(OC)cc1	.	-20.6	1.4	4.7	-15.2	-0.2	i	-6.4
33	COc1ccc(CN(C)C(=O)c2ccc(Cl)c(S(=O)(=O)NCc3cccnc3)c2)cc1F	22.4	-8.4	1.7	-6.0	.	.	.	-2.7
34	Cc1sc2c(c1C)CN(C1CC(C)(C)NC(C)(C)C1)CN2C(=O)c1ccco1	.	.	.	.	41.1	39.6	.	-6.1
35	CC(=O)c1ccc(OCCCC(=O)OCc2nnc(-c3ccc(Cl)cc3)o2)cc1	-38.0	-5.8	3.8	3.4	-5.6	-2.0	.	-7.6
36	O=C(N/N=C/c1ccccc1Cl)c1ccc(F)cc1	-207.1	-14.8	-3.8	-0.8	0.7	-5.9	i	-8.3
37	Cc1cc(C)nc(SCCn2c(N3CC(C)OC(C)C3)nc3c2c(=O)n(C)c(=O)n3C)n1 (stereo unspecified)	6.6	.	0.5	1.8	-4.3	-4.4	i	-16.2
38	Cc1ccc(C)c(S(=O)(=O)N2CCC(c3nc4c(nnn4Cc4ccc5c(c4)OCCO5)c(=O)[nH]3)CC2)c1	5.4	-8.9	-4.8	-9.8	12.3	0.9	i	12.2
39	CCNC(=S)N/N=C/c1cccc(OCc2c(F)cccc2Cl)c1	3.0	-22.7	-1.3	-4.5	12.9	-5.4	i	31.7
40	C=CC[n+]1c(C)csc1Nc1ccc(C)cc1	-5.4	.	-3.7	-1.8	9.8	-7.7	.	-5.8
41	Cc1[nH]c2ccccc2c1CCN(Cc1cccs1)C(=S)Nc1ccccc1	-6.0	-16.1	-2.6	-2.1	-14.1	3.9	i	-1.4
42	CCc1c(-c2ccccc2)nc2nc(C)c(C)nn12	-0.6	-18.6	-1.9	4.2	7.4	-1.5	i	-13.2
43	CCOc1ccc(S(=O)(=O)N2CCOCC2)cc1NC(=O)c1ccc(N2CCCC2=O)cc1	?	10.5	0.6	-0.8	.	.	i	3.1
44	O=C(C1CCN(S(=O)(=O)c2ccc(F)cc2)CC1)N1CCCC(C(F)(F)F)C1 (stereo unspecified)	-9.5	-3.7	-0.2	0.7	.	.	i	-12.4
45	FC(F)(F)c1cccc(Cn2c3[n+](c4ccc(C(F)(F)F)cc42)CCCCC3)c1	-14.9	.	-1.1	3.0	5.3	-6.2	i	-0.8
46	CCC(C)C(NC(=O)C1CCC(C)CC1)C(=O)NC(CCSC)C(=O)OC (stereo unspecified)	-179.9	-10.1	-1.3	-4.8	2.6	3.5	i	-13.0
47	Cc1cccc(Cc2cnc(NC(=O)CN3C(=O)/C(=C/c4ccccc4)SC3=S)s2)c1	.	-0.3	6.2	-0.4	-7.4	10.8	i	15.2
48	CC1(C)Cc2c(C#N)c(N3CCOCC3)nc(Cc3ccccc3)c2CO1	.	-10.2	-1.7	-4.2	0.4	0.7	.	-12.6
49	CC(C)CCn1c(N2CCCC2)nc2c1c(=O)[nH]c(=O)n2C	-9.0	-10.0	1.2	1.8	3.6	-3.5	i	.
50	O=C(Cn1cnc2cc([N+](=O)[O-])ccc2c1=O)N(Cc1ccccc1)C1CCS(=O)(=O)C1 (stereo unspecified)	11.7	.	-0.2	1.5	-0.6	9.0	i	7.0
51	Cc1nn(-c2cccc(C(F)(F)F)c2)c(=O)c2noc(C)c12	-0.8	.	-3.2	-2.6	-14.4	-8.6	i	-5.7
52	COc1cccc2cc(-c3nnc(SCC(=O)NCc4ccccc4)n3C)oc12	3.5	-5.5	3.2	3.0	-0.1	2.0	i	-7.9
53	CC(C)c1ccc(Nc2nc(Cl)nc(NCCO)n2)cc1	-15.6	-4.3	2.3	-4.2	3.2	12.2	i	-6.9
54	O=C1c2[nH]nc(-c3ccccc3O)c2C(c2cccc(O)c2)N1Cc1ccco1 (stereo unspecified)	.	-5.4	2.5	-1.5	-0.6	5.4	i	5.4
55	Cc1nc2sc(C)c(C)c2c(=O)o1	-0.8	-3.8	-3.2	3.3	24.8	5.3	i	-3.1
56	CC(=O)c1cc2c(cc1NC(=O)CCC1CCCC1)OCO2	15.9	.	.	.	9.9	2.9	i	-2.6
57	COc1cc(C(=S)NC2CCCCC2)ccc1O	.	.	7.6	-1.8	0.5	-2.6	i	-1.4

# Looked up by compound from the entries so far (2):
no.	Compound	Env fusion inh	Yeast UUG start	MT1-MMP act inh	MT1-MMP act inh RFP	PABP polyA inh	eIF4H inh	Rce1 inh	CSC inhib
43	CCOc1ccc(S(=O)(=O)N2CCOCC2)cc1NC(=O)c1ccc(N2CCCC2=O)cc1	?	10.5	0.6	-0.8	.	.	i	3.1
31	COc1ccc(-c2nc(CS(=O)(=O)CC(=O)NCc3cccc(Br)c3)c(C)o2)cc1	10.2	-21.7	7.2	2.6	34.7	28.6	i	10.5

# Copied from the list:
# entry 54 in PABP polyA inh shows -0.6
# entry 50 in eIF4H inh shows 9.0
# entry 55 in Env fusion inh shows -0.8
# entry 34 in eIF4H inh shows 39.6
# entry 48 in MT1-MMP act inh RFP shows -4.2
